Ecoli rRNA inh – inhibits bacterial ribosomal RNA function over humanized ribosomes | E. coli WT GFP vs humanized-ribosome RFP mutants, fluorescence, 24 h; stronger effect = lower value; DMSO median 0, no signal -100 | GFP signal change (wild-type ribosome), % (concentration not given with the values) | hit rate 1.6% among 350,000;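 active = significant combined selectivity score with lowered wild-type GFP, culture density cut under 30%, mutant RFP and density less affected; inactive = any of these conditions unmet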; also: one replicate is shown; some compounds called inactive have numbers as strong as hits
MLL AF4-AF9 inh – blocks AF4 peptide binding to human AF9; P42568; AlphaScreen, biotin-AF4 peptide binding to FLAG-AF9; inhibition, % at 10 µM; hit rate 0.47% among 350,000;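 active = every replicate reaching a set inhibition limit, whatever the replicate mean, cut at about 25% in these data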;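 also: 0% = plate neutral control median and 100% = total signal loss; the record names both 10 and 1 µM as test concentration; the first replicate is given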
Target sequence (P42568 whole entry, looked up): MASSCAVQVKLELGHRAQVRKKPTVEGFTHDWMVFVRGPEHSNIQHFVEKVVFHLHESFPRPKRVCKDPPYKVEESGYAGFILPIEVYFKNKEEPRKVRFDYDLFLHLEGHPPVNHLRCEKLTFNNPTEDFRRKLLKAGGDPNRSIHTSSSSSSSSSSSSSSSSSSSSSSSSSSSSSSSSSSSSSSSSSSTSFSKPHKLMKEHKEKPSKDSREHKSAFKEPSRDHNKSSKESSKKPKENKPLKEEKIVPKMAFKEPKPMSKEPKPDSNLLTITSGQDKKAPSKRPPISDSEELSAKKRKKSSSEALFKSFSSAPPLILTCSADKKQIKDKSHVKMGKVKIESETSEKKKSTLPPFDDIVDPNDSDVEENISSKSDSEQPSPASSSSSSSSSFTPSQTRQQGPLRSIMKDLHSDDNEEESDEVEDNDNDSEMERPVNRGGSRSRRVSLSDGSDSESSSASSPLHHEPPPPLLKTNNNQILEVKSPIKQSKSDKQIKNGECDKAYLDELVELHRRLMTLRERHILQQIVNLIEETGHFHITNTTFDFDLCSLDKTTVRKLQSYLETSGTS
Ecoli rRNA inh OD600 – further read-out of Ecoli rRNA inh, marked with its call; OD600 change, %; measured here: OD600 growth;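 optical density of the mix in the first replicate; 0 = DMSO median and -100 = no signal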
Ecoli rRNA inh RFP – recorded beside Ecoli rRNA inh, whose call it bears; RFP signal change, %; measured here: RFP humanized mutant strains;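 first replicate; 0 = DMSO median and -100 = no signal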
The depositor's hits bear a star; & = joins results of further samples.

no. | compound | Ecoli rRNA inh | Ecoli rRNA inh OD600 | Ecoli rRNA inh RFP | MLL AF4-AF9 inh
1 | COc1ccc(NC(=O)N(C)C[C@@H]2OCCCC[C@H](C)Oc3ccc(NS(=O)(=O)c4c(C)noc4C)cc3C(=O)N([C@@H](C)CO)C[C@H]2C)cc1 | -1.6 | -1.6 | -0.5 | -6.5
2 | CCCC#Cc1ccc([C@H]2[C@@H](CO)N(C(C)=O)[C@@H]2CNC(=O)C2CCCC2)cc1 | -3.1 | 0.9 | -0.1 | -4.5
3 | Cc1nc(N2[C@H](CO)[C@H](c3ccccc3)[C@H]2CNCC2CCC2)sc1C | 3.5 | 0.5 | 1.2 | 1.3
4 | C/C=C/c1ccc(C2[C@@H]3CN(Cc4cc(OC)cc(OC)c4)C[C@H]2N3)cc1 (stereo partly specified) | -11.7 | -38.9 | 23.1 | 13.7
5 | O=C(O)C[C@@H]1C[C@H]2c3cc(NC(=O)C4CCOCC4)ccc3O[C@H]2[C@@H](CO)O1 | 0.4 | 6.7 | -2.6 | -1.3
6 | O=C(NCC[C@@H]1CC[C@H](NC(=O)C2CCOCC2)[C@@H](CO)O1)c1cc(Cl)cc(Cl)c1 | -0.7 | 8.3 | 0.2 | 0.7
7 | CO[C@H]1CC[C@@H]2CCOc3c(C#N)cccc3C(=O)N(C)C[C@@H](OC)[C@H](C)C(=O)N(C)C[C@H]1O2 | -1.4 | 0.6 | -0.6 | 1.1
8 | COCC#Cc1ccc([C@@H]2[C@@H](CO)N3C(=O)CN(C(=O)Nc4ccccc4F)C[C@@H]23)cc1 | 2.3 | -2.5 | 2.5 | -4.0
9 | CC=Cc1ccc2n(c1=O)C[C@H]1[C@H](CO)[C@@H](C(=O)NCCc3ccncc3)[C@@H]2N1CCc1ccccc1 (mixture of isomers) | -3.8 | -8.2 | -4.1 | -3.7
10 | CC(C)NC(=O)N1CC(=O)N2[C@@H](CO)[C@H](c3ccc(C#CCN(C)C)cc3)[C@@H]2C1 | 2.9 | 14.4 | -2.9 | -1.0
11 | COc1ccccc1S(=O)(=O)N1C[C@@H]2N[C@H](C1)C2c1ccc(-c2ccncc2)cc1 (stereo partly specified) | 1.5 | -39.0 | -0.7 | -9.0
12 | N#Cc1cccc(-c2ccc(C3[C@@H]4CN(C(=O)c5ccncc5)C[C@H]3N4)cc2)c1 (stereo partly specified) | 2.7&-4.3 | 8.7&3.2 | -1.8&-2.1 | -4.7&-11.0
13 | Cc1ccc(S(=O)(=O)Nc2ccc3c(c2)C(=O)N([C@@H](C)CO)C[C@H](C)[C@H](CN(C)C(=O)CCC(F)(F)F)OCCCC[C@H](C)O3)cc1 | 1.4 | -8.8 | 1.0 | 2.4
14 | O=C(C1CC1)N1CC(=O)N2[C@H](CO)[C@@H](c3ccc(C#CCc4ccccc4)cc3)[C@H]2C1 | 3.2 | 7.7 | -7.9 | 3.7
15 | COc1ccc2c3c([nH]c2c1)[C@H](CO)N(C(C)=O)CC31CCN(Cc2cc(-c3ccccc3)on2)CC1 | -3.5 | -27.2 | 5.5 | 30.5*
16 | O=C(C1CCCCC1)N1CC[C@@H]2[C@@H](CO)Nc3ccc(C#Cc4ccc(F)cc4)cc3[C@@H]21 | -13.6 | -52.0 | 19.7 | 11.6
17 | C/C=C/c1ccc([C@@H]2[C@@H](CO)N3C(=O)CN(Cc4ccccc4)C[C@@H]23)cc1 | 4.0 | -2.6 | 2.5 | 3.4
18 | C[C@H](CO)N1C[C@H](C)[C@@H](CN(C)C(=O)CCC(F)(F)F)OCCCC[C@H](C)Oc2ccc(NS(C)(=O)=O)cc2C1=O | -0.6 | 4.6 | -1.6 | -11.1
19 | COc1ccc(NC(=O)Nc2ccc3c(c2)CC(=O)N([C@@H](C)CO)C[C@H](C)[C@H](CN(C)S(=O)(=O)c2cccs2)O3)cc1 | -2.0 | -8.2 | 2.8 | 2.5
20 | N#Cc1cccc(-c2ccc(C3[C@@H]4CN(C(=O)C5CCC5)C[C@H]3N4)cc2)c1 (stereo partly specified) | -0.3&-1.1 | 11.9&0.2 | 1.9&-0.2 | 1.5&-2.9
21 | O=C(NC1CCCC1)N1CC2(C1)[C@H](c1ccccc1)[C@H](CO)N2CC1CCCC1 | -5.5 | -11.1 | 5.1 | 0.0
22 | C/C=C/c1ccc([C@H]2[C@H]3CN(C(=O)Nc4ccc(OC)cc4)CC(=O)N3[C@H]2CO)cc1 | 0.6 | -1.9 | 4.4 | 2.0
23 | C[C@H]1CN([C@@H](C)CO)C(=O)c2cc(C#CCc3ccccc3)cnc2O[C@H]1CN(C)C(=O)C1CC1 | -2.1 | -1.3 | 1.1 | -4.6
24 | C/C=C/c1ccc([C@H]2[C@@H](CO)N(S(=O)(=O)CC)[C@H]2CN(C)C(=O)CC)cc1 | 2.9 | 6.6 | 1.0 | -2.0
25 | O=C(C[C@H]1C=C[C@H](NC(=O)c2ccc3c(c2)OCO3)[C@H](CO)O1)NC1Cc2ccccc2C1 | 2.4 | 10.7 | -1.9 | -5.7
26 | CN(C)C(=O)c1cccc(-c2ccc([C@@H]3[C@H]4CN(C(=O)CC5CC5)CC(=O)N4[C@H]3CO)cc2)c1 | 4.4 | 24.9 | 6.2 | -1.7
27 | COc1ccc(CN(C)C[C@@H]2OCCCC[C@H](C)Oc3ccc(NS(=O)(=O)c4ccc(C)cc4)cc3C(=O)N([C@H](C)CO)C[C@H]2C)cc1 | -4.8 | -49.7 | 32.5 | 7.0
28 | O=C(C[C@H]1CC[C@H]2[C@@H](COC[C@@H](O)CN2Cc2ccccc2)O1)NCCc1ccccc1 | -7.2 | -16.3 | -0.9 | 1.2
29 | CN(C)C(=O)[C@H]1[C@H](CO)[C@H]2Cn3c(cccc3=O)[C@H]2N1C(=O)NC1CCCC1 | 3.3 | 1.6 | -0.8 | -5.1
30 | N#C[C@@H]1[C@@H](c2ccc(C#Cc3ccccc3F)cc2)[C@H](CO)N1C(=O)C1CCCC1 | -1.9 | -42.0 | 33.8 | -2.7

Record cards (already shown).
O=C(NCC[C@@H]1CC[C@H](NC(=O)C2CCOCC2)[C@@H](CO)O1)c1cc(Cl)cc(Cl)c1 is entered as Ecoli rRNA inh: -0.7; Ecoli rRNA inh OD600: 8.3; Ecoli rRNA inh RFP: 0.2; MLL AF4-AF9 inh: 0.7
C[C@H]1CN([C@@H](C)CO)C(=O)c2cc(C#CCc3ccccc3)cnc2O[C@H]1CN(C)C(=O)C1CC1 is entered as Ecoli rRNA inh: -2.1; Ecoli rRNA inh OD600: -1.3; Ecoli rRNA inh RFP: 1.1; MLL AF4-AF9 inh: -4.6
O=C(C1CC1)N1CC(=O)N2[C@H](CO)[C@@H](c3ccc(C#CCc4ccccc4)cc3)[C@H]2C1 is entered as Ecoli rRNA inh: 3.2; Ecoli rRNA inh OD600: 7.7; Ecoli rRNA inh RFP: -7.9; MLL AF4-AF9 inh: 3.7

Later entries
no. | compound | Ecoli rRNA inh | Ecoli rRNA inh OD600 | Ecoli rRNA inh RFP | MLL AF4-AF9 inh
31 | CC(=O)N(C)C[C@@H]1Oc2ncc(C#Cc3ccncc3)cc2C(=O)N([C@H](C)CO)C[C@@H]1C | 4.2 | 2.3 | -1.7 | -17.2
32 | CC=Cc1ccc2n(c1=O)C[C@H]1[C@H](CO)[C@@H](C(=O)NCc3ccccc3)[C@@H]2N1C (mixture of isomers) | 4.0 | 4.5 | 0.9 | -0.2
33 | O=C(c1ccccn1)N1CC2(C1)[C@@H](c1ccccc1)[C@@H](CO)N2C(=O)C1CCC1 | 0.4 | 5.7 | -2.3 | 0.8
34 | O=S(=O)(c1ccccc1F)N1C[C@@H]2N[C@H](C1)C2c1ccc(-c2cccnc2)cc1 (stereo partly specified) | 0.6 | -0.4 | -2.9 | -6.9
35 | O=C(Cc1ccccc1)N1CC[C@H]2[C@H](CO)Nc3ccc(C4=CCCCC4)cc3[C@H]21 | -14.8 | -42.2 | -3.7 | 12.0
36 | C/C=C/c1ccc2c(c1)[C@H]1[C@H](CCN1C(=O)c1cccc(F)c1)[C@H](CO)N2 | 2.3 | 18.6 | -3.3 | 2.1
37 | N#C[C@@H]1[C@H](c2ccccc2C2=CCCC2)[C@H](CO)N1C(=O)CN1CCOCC1 | 0.4 | 15.2 | -0.7 | 0.3
38 | CC(C)CC#Cc1ccc([C@H]2[C@@H](CO)N3C(=O)CN(C(=O)Cc4ccccc4)C[C@H]23)cc1 | -49.1 | -60.5 | -1.0 | -0.9
39 | CN(C)C(=O)c1ccc(-c2ccc([C@H]3[C@@H](CO)N4C(=O)CN(C(=O)C5CCCC5)C[C@H]34)cc2)cc1 | -0.9 | 9.1 | -0.6 | -6.5
40 | O=C(c1ccccn1)N1CC(=O)N2[C@H](CO)[C@@H](c3ccc(C#CCc4ccccc4)cc3)[C@H]2C1 | 1.1 | -2.3 | 0.1 | -0.6
41 | CCC(=O)N1CC2(C1)[C@@H](c1ccc(-c3ccccc3C)cc1)[C@H](CO)N2C(=O)CC | -1.4 | 1.2 | 0.5 | 0.3
42 | CCC(=O)N1CC2(CN(C(=O)c3cccnc3)C2)c2c([nH]c3cc(OC)ccc23)[C@H]1CO | 0.6 | 6.8 | 0.4 | 1.9
43 | CCCNC(=O)[C@H]1[C@H](CO)[C@H]2Cn3c(cccc3=O)[C@H]2N1C(=O)C1CC1 | 2.0 | 2.1 | -1.9 | 1.5
44 | C[C@H]1CN([C@@H](C)CO)C(=O)c2c(c3ccccc3n2C)-c2ccccc2CO[C@@H]1CN(C)S(=O)(=O)c1ccc([N+](=O)[O-])cc1 | 0.7 | 0.3 | 1.4 | -0.2
45 | O=C(C1CCCCC1)N1CC2(C1)[C@@H](c1ccccc1)[C@@H](CO)N2CC1CCCC1 | -30.8 | -54.2 | 29.9 | 4.2
46 | COc1ccc(CN(C)C[C@H]2Oc3ccc(NC(=O)Cc4ccccc4)cc3C(=O)N([C@@H](C)CO)C[C@@H]2C)cc1 | 1.8 | 1.2 | -1.5 | -1.8
47 | CCNC(=O)[C@H]1[C@H](CO)[C@H]2Cn3c(cccc3=O)[C@@H]1N2CC1CCOCC1 | 2.3 | 1.9 | -0.6 | -3.0
48 | C[C@@H]1CCCCO[C@H](CN(C)S(=O)(=O)c2ccc(F)cc2)[C@H](C)CN([C@H](C)CO)C(=O)c2cc(NS(=O)(=O)c3ccc(Cl)cc3)ccc2O1 | -0.2 | -3.4 | 2.4 | 1.6
49 | O=C(NC1CCC1)[C@H]1[C@H](CO)[C@H]2Cn3c(ccc(C4=CCCC4)c3=O)[C@H]2N1C(=O)C1CCC1 | 1.3 | 12.0 | 1.8 | -1.2
50 | O=C(C[C@@H]1CC[C@H](NS(=O)(=O)c2ccc(F)cc2)[C@H](CO)O1)NCc1ccccc1F | 0.9 | 3.0 | -2.2 | -1.7
51 | CCCC#Cc1ccc([C@@H]2[C@H]3CN(CC4CC4)CCCCN3[C@H]2CO)cc1 | 4.7 | -23.5 | 16.4 | 11.4
52 | N#Cc1ccc(-c2ccc([C@@H]3[C@@H](CO)N4C(=O)CN(C(=O)C5CCC5)C[C@@H]34)cc2)cc1 | -0.8 | 7.8 | 9.3 | -2.1
53 | O=C(Cc1ccccn1)N1CC(=O)N2[C@H](CO)[C@@H](c3ccc(-c4ccc(F)cc4)cc3)[C@@H]2C1 | -0.2 | -16.5 | 3.0 | -0.2
54 | Cc1ccccc1S(=O)(=O)N1CC(=O)N2[C@H](C1)[C@H](c1ccc(C#CC3CC3)cc1)[C@@H]2CO | 3.0 | -19.5 | 31.0 | 1.5
55 | O=C(Nc1ccc(F)cc1)N1CC(=O)N2[C@H](CO)[C@@H](c3ccc(Br)cc3)[C@H]2C1 | -7.1 | 8.1 | 2.7 | -1.4
56 | COc1ccc(C(=O)N2C[C@H]3[C@@H](c4ccccc42)[C@@H](CO)N3C(=O)c2cccc(F)c2)cc1 | 1.4 | -1.3 | -2.6 | -0.1
57 | N#C[C@@H]1[C@@H](c2ccccc2C2=CCCCC2)[C@H](CO)N1C(=O)NC1CCCCC1 | -1.5 | -20.6 | -3.2 | -0.7
58 | O=C(c1cccc(F)c1)N1CC2(C1)[C@@H](c1ccccc1)[C@@H](CO)N2C(=O)C1CCCC1 | -4.9 | 3.1 | 4.0 | -2.9
59 | CC(C)NC(=O)N(C)C[C@H]1Oc2ccc(NS(=O)(=O)c3ccc(Cl)cc3)cc2CC(=O)N([C@H](C)CO)C[C@@H]1C | 0.9 | 4.0 | -0.9 | -1.2
60 | N#Cc1ccc(-c2ccc([C@H]3[C@H]4CN(C(=O)C5CCCC5)CC(=O)N4[C@H]3CO)cc2)cc1 | -4.1 | -8.6 | -0.6 | 1.3
61 | COCC#Cc1cnc2c(c1)C(=O)N([C@H](C)CO)C[C@@H](C)[C@H](CN(C)Cc1ccc(F)cc1)O2 | -2.0 | 3.4 | -0.1 | 1.5
62 | Cc1ccccc1-c1ccc(C2[C@@H]3CN(S(=O)(=O)c4ccccc4)C[C@H]2N3)cc1 (stereo partly specified) | 5.7&-59.0 | -0.6&-75.2 | 0.9&-9.3 | -1.2&8.3
63 | COc1ccc2c3c(n(C)c2c1)[C@@H](CO)N(Cc1nccs1)CC31CN(C)C1 | 2.3 | 5.1 | -1.9 | 4.3

Down the list, from the results shown:
Ecoli rRNA inh, entries 38 to 46, in order: -49.1, -0.9, 1.1, -1.4, 0.6, 2.0, 0.7, -30.8, 1.8
MLL AF4-AF9 inh, entries 38 to 46, in order: -0.9, -6.5, -0.6, 0.3, 1.9, 1.5, -0.2, 4.2, -1.8

The list is partial; rates above refer to the full screens.
